SARS PLP yeast: inhibitors of SARS-CoV papain-like protease in yeast; Potency, µM (top dose mostly 32.9 µM), inactives show at the highest dose activity, positive = growth rescue; S. cerevisiae expressing SARS-CoV PLpro, growth rescue; control for the full effect not named in the record; 0.19% of 330,000 active; active means well fitted rising curve with a large enough effect; inconclusive means small, poorly fitted or top-dose-only effect; inactive means no such curve, though single readings can be large or run the other way; note: 0% is about no effect; nearly all actives have a fitted effect of over 55% in size; growth read by luminescence after 48 h
NS1 inh: inhibitors of influenza NS1 protein function | S. cerevisiae slowed by influenza A NS1, growth recovery by OD600 | Potency, µM (top dose mostly 46.1 µM), without a hit: top-dose activity, positive = more growth | 0.4% of 270,000 active; active means well fitted rising curve with a large enough effect; inconclusive means small, poorly fitted or top-dose-only effect; inactive means no such curve, though single readings can be large or run the other way; note: nearly all actives have a fitted effect of over 50% in size
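Growth recovery, yeast-based: influenza A NS1 expressed in S. cerevisiae causes slow growth, and suppressors are detected by OD600. The parent strain without NS1 is used as positive control.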
MARV entry inh: inhibitors of Marburg virus binding or cell entry; Marburg virus pseudotyped entry inhibition, cell reporter; control for the full effect not named in the record; about a third of the inactives were read at about 46 µM; Potency, µM (highest dose often 37.8 µM), inactives show at the top dose activity change, negative = inhibition, hits mostly inhibitors; 1.8% of 300,000 active; active = well fitted inhibition curve with a large enough effect; inconclusive = small, poorly fitted or top-dose-only effect, or effect the other way; inactive = flat fitted curve, though single readings scatter; tested in HEK293 cells; about a fifth of its hits are not listed in these tables; note: % is set by controls: 0 for no effect and ±100 for the full control effect; luciferase read-out
Cruzain noTriton: blocks cruzain activity in detergent-free assay. purified cruzain, Z-FR-AMC fluorescence, no detergent. P25779. 2.3% of 200,000 active. Potency, µM, for the others: max response, negative = inhibition, actives largely listed as inhibitors;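 note: plate controls were enzyme without inhibitor for no effect and buffer without enzyme for full effect; nearly all actives have a fitted effect of over 40% in size; top concentration of the series not given in the record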
Target sequence (P25779 123-467 limits assumed): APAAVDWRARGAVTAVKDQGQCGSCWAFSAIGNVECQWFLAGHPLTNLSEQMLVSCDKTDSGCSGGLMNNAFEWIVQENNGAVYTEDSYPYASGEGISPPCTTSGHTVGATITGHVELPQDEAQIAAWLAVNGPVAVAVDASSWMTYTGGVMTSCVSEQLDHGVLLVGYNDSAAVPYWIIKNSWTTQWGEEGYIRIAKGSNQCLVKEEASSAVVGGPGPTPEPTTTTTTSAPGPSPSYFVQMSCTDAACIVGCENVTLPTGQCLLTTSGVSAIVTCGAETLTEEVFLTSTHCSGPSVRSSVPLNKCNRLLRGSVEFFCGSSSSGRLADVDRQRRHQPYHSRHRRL
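Purified cruzain at 1.5 nM, pre-incubated 15 min with compound at room temperature in 100 mM sodium acetate pH 5.5, 5 mM DTT, 0.00005% Triton X-100. Reaction started with 2 uM Z-FR-AMC; AMC fluorescence increase over 60 s gives rate.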
Cruzain inh Det: blocks cruzain activity in presence of Triton detergent; P25779; purified cruzain, Z-FR-AMC fluorescence, 0.01% Triton; Potency, µM, for the others: max response, negative = inhibition, hits mostly inhibitors; 0.43% of 200,000 active;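 note: plate controls were neutral wells for no effect and buffer without enzyme for full effect; nearly all actives have a fitted effect of over 40% in size; top concentration of the series not given in the record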
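Cruzain (1.5 nM) preincubated 15 min at RT with compound in 100 mM sodium acetate pH 5.5, 5 mM DTT, 0.01% Triton X-100. Reaction started with 2 uM Z-FR-AMC; AMC fluorescence (ex 360/em 450 nm) change over 60 s gave rate.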
StopGo reporter: lowers the luciferase signal of an FMDV 2A StopGo reporter; human cells with a luciferase reporter of 2A StopGo recoding; control for the full effect not named in the record; Potency, µM (titrated, usually from 57.9 µM), without a hit: at the top dose signal change, negative = less light; 1.2% of 410,000 active; active = well fitted falling curve with a large enough effect; inconclusive = small, poorly fitted or top-dose-only effect; inactive = no such curve, though single readings can be large or run the other way; tested in HEK293T cells; note: % is set by controls: 0 for no effect and ±100 for the full control effect; nearly all actives have a fitted effect of over 45% in size; luciferase light after 4 h
Lassa entry inh: Lassa virus entry inhibition; Lassa virus pseudotype entry inhibition, cell reporter; control for the full effect not named in the record; Potency, µM (doses to about 37.9 µM), inactives show top-dose activity change, negative = inhibition, usual class: inhibitors; 1.2% of 300,000 active; active means well fitted inhibition curve with a large enough effect; inconclusive means small, poorly fitted or top-dose-only effect, or effect the other way; inactive means flat fitted curve, though single readings scatter; tested in HEK293 cells; note: % is set by controls: 0 for no effect and ±100 for the full control effect; nearly all actives have a fitted effect of over 50% in size; luciferase read-out
RE007 growth inh: less growth of the S. pombe RE007 Vpr strain; 0.21% of 360,000 active; S. pombe RE007 Vpr strain, BacTiter-Glo ATP luminescence, 24 h; control for the full effect not named in the record; Potency, µM (highest dose often 92.2 µM), without a hit: at the highest dose activity change, negative = less growth; active = well fitted falling curve with a large enough effect; inconclusive = small, poorly fitted or top-dose-only effect; inactive = no such curve, though single readings can be large or run the other way;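 note: % is set by controls: 0 for no effect and ±100 for the full control effect; nearly all actives have a fitted effect of over 50% in size; the assay follows cell death caused by Vpr and the record does not say whether a fall means rescue or toxicity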
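Fission yeast RE007 carrying one integrated HIV-1 vpr copy, seeded at OD 0.01 in PMG+AL medium with 23 nL pinned compound. Grown 24 h at 30 degrees; viability read by BacTiter-Glo luminescence after 5 min.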
* hit, by the source's call; ? = inconclusive; · = not tested or not shown; & = joins results of further samples; [ ] = dose if it differs, or a comment. Unless noted, calls come from the whole dose curve; as a rule, active = well fitted curve in the direction sought with a large enough effect; inconclusive = small, poorly fitted or top-dose-only effect, or another doubt; inactive = no such curve, though single readings can be large; an effect the other way counts as inactive or inconclusive. Potency is the fitted concentration of half-maximal effect. Rows are unselected, and some 4.8% of all compounds hit somewhere here.

SMILES | SARS PLP yeast | NS1 inh | MARV entry inh | Cruzain noTriton | Cruzain inh Det | StopGo reporter | Lassa entry inh | RE007 growth inh
COCCn1c(Sc2ccccc2)nc2c1c(=O)[nH]c(=O)n2C | -5% | ? | 4% | 2% | 4.3% | 2% | 0% | 14%
CCOC(=O)c1oc2ccccc2c1CN1CCN(C(=O)c2ccccc2)CC1 | 3.5µM* | -35% | -2% | 10% | -2.5% | ? | ? | -3%
O=C(CSc1nc2ncccc2[nH]1)Nc1ccc2c(c1)OCO2 | 0% | 2% | -3%[46.1 µM] | · | · | 18% | 18% | 5%
CC(Oc1cc(F)ccc1[N+](=O)[O-])C(=O)N(C)CC(=O)Nc1ccccc1C(F)(F)F (stereo not drawn) | -1% | 5% | 10%[46.1 µM] | · | · | -19% | 3% | 20%
O=C(NCC1CCCO1)C(c1ccco1)N(Cc1ccc(F)cc1)C(=O)CN1C(=O)c2ccccc2S1(=O)=O (stereo not drawn) | 0% | 10% | 4%[46.1 µM] | · | · | 23% | -5% | 0%
O=C(COc1ccc2ccc(=O)oc2c1)Nc1cc([N+](=O)[O-])ccc1F | -2% | · | 1% | · | · | 0% | -10% | 22%
CC(=O)c1c(C)[nH]c(C(=O)CSc2nnc(CN3CCCCCC3=O)n2-c2ccccn2)c1C | -5% | 5% | 4%&4% | 4% | 1.4% | · | -7% | -12%
COCCN1CCN(C(=O)c2ccc3nc(Cc4ccccc4F)oc3c2)CC1 | -1% | 1% | 30% | · | · | 5% | 6% | -3%
S=c1[nH]nc(-c2ccc3ccccc3n2)n1-c1ccc(Cl)cc1 | -3% | 24% | ? | ? | 1.2% | -5% | 7% | 13%
Cc1cccc(OCC(=O)NS(=O)(=O)c2ccc(Br)cc2)c1 | -1% | -6% | · | · | · | -18% | · | 31%
CC1CCc2c(sc3c2C2=NS(=O)(=O)CCN2C=N3)C1 (stereo not drawn) | 0% | 0% | ? | 5% | -4.3% | 0% | ? | -9%
CC(=O)Nc1ccc(S(=O)(=O)NCc2nc(-c3ccccc3C)no2)cc1 | 1% | 12% | 19%[46.1 µM] | · | · | -8% | 18%[46.1 µM] | 4%
C=C(C)C(=O)Nc1cccc(C2=NOC3(C2)C[C@@H](C(N)=O)N(C(=O)c2ccc(OC)cc2)C3)c1 (stereo partly drawn) | -4% | 0% | · | · | · | -11% | · | 21%
Cc1ccc(CNC(=O)CCC(=O)Nc2nnc(C)s2)cc1 | -3% | 3% | · | · | · | -7% | · | -10%
Cc1nnsc1C(=O)Nc1cccc(Cl)c1 | -5% | · | -13%[46.1 µM] | · | · | 9% | -14%[46.1 µM] | -11%
COc1ccc(OC)c(C2CC(=O)N3CN(c4ccccc4F)CSC3=C2C#N)c1 (stereo not drawn) | 12% | -29% | -1% | -4% | 1.4% | -2% | · | -11%
COC(=O)c1c(-c2ccccc2)csc1N | · | -3% | 16% | -10% | 1.6% | ? | 1% | -12%
Cc1cccc(CCNc2ncnc3onc(-c4ccc(Cl)cc4)c23)c1 | · | · | ? | -11% | -6.2% | ? | -2%[46.1 µM] | ·
CC#CCC(CC#CC)c1nc2ccccc2c(=O)n1N | 6% | 5% | ? | 0% | -3.1% | -14% | ? | 7%
O=S(=O)(c1ccccc1)N1CCN(C(=S)Nc2ccccc2)CC1 | -4% | 3% | · | · | · | 10% | · | 10%
Cc1ccc(-c2cn(-c3ccccc3)c(=S)[nH]2)cc1C | -4% | -8% | ? | · | · | 0% | · | -8%
CCCCNC(=O)Nc1nc(SCC(=O)OCC)n[nH]1 | 1% | -6% | · | · | · | -7% | · | 4%
Nc1ccccc1C(=O)OC1CSC1 | -3% | 13% | 3% | -13% | 0.3% | · | 21% | -9%
CCOC(=O)C1=C(C)NC(C)=C(C(=O)OCC)C1C(=O)O | 7% | 5% | 4% | 0% | 5.7% | 7% | -8% | -4%
CCOC(=O)[C@@H]1[C@H]2COc3cc(OC)ccc3[C@H]2N2C(=O)N(c3ccc(F)cc3)C(=O)[C@]12C | 9% | ? | · | · | · | -7% | · | -1%
(list continues)
SMILES | SARS PLP yeast | NS1 inh | MARV entry inh | Cruzain noTriton | Cruzain inh Det | StopGo reporter | Lassa entry inh | RE007 growth inh
Cc1nc(SCC(=O)Nc2nnc(C(C)C)s2)n[nH]1 | 2% | -2% | 9%[46.1 µM] | · | · | -6% | 0%[46.1 µM] | 16%
O=C(CSC(=S)N1CCCCC1)N1N=CCC1c1ccccc1 (stereo not drawn) | -1% | 11% | 29% | 8% | -0.4% | 19% | 15% | -7%
O=C1/C(=C/c2ccc([N+](=O)[O-])cc2)Oc2cc(O)ccc21 | -6% | -43% | ? | · | · | 21% | ? | 2%
O=C(Nc1ccccc1F)C1CCCN(S(=O)(=O)c2cccc3cccnc23)C1 (stereo not drawn) | -5% | -12% | · | -3% | -2.3% | -12% | · | 1%
CCCC(=O)N1CCC(CCC(=O)NC2CC2)CC1 | ? | 6% | · | · | · | -10% | · | 2%
COc1ccc(C(=O)Oc2cc(C(=S)N3CCOCC3)ccc2OC)cc1 | -1% | 0% | -6%[46.1 µM] | · | · | 4% | ? | -4%
C=CCn1cccc(C(=O)Nc2ccc(OC)cc2OC)c1=O | 0% | · | ? | · | · | 27% | 12% | 2%
O=C(COC(=O)c1cccs1)Nc1ccccc1Cl | -1% | -6% | 18%[46.1 µM] | · | · | 16% | ? | -6%
CC(C)(C)n1cnnc1Sc1ccc([N+](=O)[O-])cn1 | 0% | -2% | · | · | · | -20% | · | -6%
Cc1ccc(S(=O)(=O)c2nnn3c2nc(NCc2ccc(F)cc2)c2sccc23)cc1 | · | · | · | 3% | -1.5% | -22% | 25%[46.1 µM] | ·
O=C(NNC(=O)C(c1ccccc1)c1ccccc1)c1ccccn1 | 6% | -13% | 4.6µM* | -5% | -3.1% | ? | ? | -7%
CCOC(=O)COc1ccc(/C=C2/SC(=Nc3ccccc3)N(Cc3cccnc3)C2=O)cc1OC | -5% | 6% | -4% | 18% | -0.6% | ? | ? | -12%
Cc1cc(C)cc(NC(=S)N2CCC(c3nc4ccccc4s3)CC2)c1 | 23% | 4% | 0% | 8% | -11% | · | -28% | -14%
COc1ccc([N+](=O)[O-])c(S(=O)(=O)c2ccc(Cl)cc2)n1 | -7% | -77% | 4.5µM* | · | · | 13µM* | ? | 13µM*
O=C1SC(SCc2ccccc2Cl)=N/C1=C\c1ccc(C(=O)O)cc1 | 2% | 1% | · | · | · | -13% | · | 15%
O=C(Nc1cccc(F)c1)c1cccc2c1C(=O)N(C1CCCCC1)C2 | 1% | 1% | 11%&11%[46.1 µM] | 2% | -0.5% | -1%&-11% | 0%[46.1 µM] | 0%
CC(=O)N/C(=N/c1nc(C)cc(C)n1)Nc1ccc(C)cc1C | -2% | 5% | ? | · | · | -14% | -29% | -15%
COc1ccccc1NC(=O)CC(C)n1nc(C)cc1C (stereo not drawn) | · | · | · | 5% | -0.5% | -2% | -1%[46.1 µM] | ·
N#Cc1ccc(OCC(=O)Nc2ccccc2NS(=O)(=O)c2cccs2)cc1 | 29% | 4% | -4% | -3% | -4.2% | 36%[activator] | 5% | -7%
O=C(Nc1ccc(OC(F)(F)F)cc1)c1ccc2nccnc2c1 | -2% | · | ? | · | · | ? | -22%[46.1 µM] | 0%
Cc1sc2c(c1C)C(c1ccc(C(C)(C)C)cc1)=NCC(=O)N2CC(=O)Nc1nccs1 | -27% | -32% | ? | -11% | -8.8% | ? | ? | 9%
Oc1c(N=NC(=S)Nc2ccccc2F)c2ccccc2n1Cc1ccc(F)cc1 | 0% | -1% | · | · | · | 6% | · | -2%
O=C(CSc1nc2ccccc2n1CC(=O)NCc1ccccc1)NCc1ccco1 | 3% | -8% | 11% | -1% | -1.5% | -3% | 1% | 5%
CN(Cc1c(F)cccc1Cl)C(=O)CNC(=O)c1cccs1 | 2% | 5% | · | · | · | 38%[activator] | · | 5%
CCOc1ccc(NC(=O)CSc2nccn2C)cc1 | 12% | 4% | ? | -10% | 0.4% | 83%[activator] | ? | 8%
(cont.)
SMILES | SARS PLP yeast | NS1 inh | MARV entry inh | Cruzain noTriton | Cruzain inh Det | StopGo reporter | Lassa entry inh | RE007 growth inh
CC(=O)C1=C(O)C(=O)N(Cc2ccco2)C1c1ccccc1F (stereo not drawn) | 1% | · | ? | · | · | -11% | 14%[46.1 µM] | 14%
COC(=O)C1=C(C(=O)OC)[C@@H]2N(C)c3ccc(OC)cc3[C@@]23C[C@@H](C(=O)OC)N(C(=O)c2ccc(Br)cc2)C3=N1 | 1% | -44% | · | · | · | ? | · | 4%
CC(=O)Nc1ccc(NC(=O)CN(C)S(=O)(=O)c2ccc3c(c2)CCCC(=O)N3)cc1 | · | · | · | 0% | -3.4% | -15% | 14%[46.1 µM] | ·
Brc1ccccc1-c1nnc(CSc2nnc3sc4ccccc4n23)o1 | ? | 2% | 16% | ? | -2.5% | 7% | -7% | 2%
CN1C(=O)C(C)(C)c2cc(S(=O)(=O)N3CCCC(C(=O)NCc4ccccc4Cl)C3)ccc21 (stereo not drawn) | 4% | -6% | · | · | · | ? | · | 8%
CCC(CC)NC(=O)CN1CCN(S(=O)(=O)c2ccc(Br)s2)CC1 | 0% | · | 16% | · | · | 0% | -20% | -12%
COc1ccccc1-n1c(SCc2cc(=O)oc3cc(O)ccc23)nc2ccccc2c1=O | 8% | ? | ? | 25µM* | -12% | -28% | ? | 12%
COc1ccc(-n2nc3c(c2NC(C)=O)CS(=O)(=O)C3)cc1 | 0% | 4% | · | · | · | -15% | · | 6%
CSc1ccc(CCNC(=O)Cn2nc(C)n3c(cc4sccc43)c2=O)cc1 | · | · | 8%[46.1 µM] | 1% | 0.1% | 0% | · | ·
CCOC(=O)N1CCN(C(=O)CCNS(=O)(=O)c2ccccc2)CC1 | 0% | -2% | 3% | · | · | -7% | 10% | ?
O=c1[nH]c(=O)n(-c2ccccc2)c2c1C(C(F)(F)F)(C(F)(F)F)N=C(C1CCCCC1)N2 | 11% | 24% | -5% | -7% | -1.4% | ? | ? | -10%

From PubChem BioAssay
